Sa growth 42C: S. aureus growth inhibition at 42 and 30 °C, primary screen, LtaS inhibitor project, RN4220, two temperatures; OD600, 20 h, 42 °C; hits give low values; relative growth, % (no concentration beside the values); 0.53% of 170,000 active;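 active means growth at 42 °C up to 50% and 20 or more points under that at 30 °C, or under 10% at both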;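 further: 300 nL library stock went into each well; scaled to the means of positive and negative controls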
HCMV UL50-53 inh: inhibitors of HCMV UL50-UL53 interaction, biochemical, HTRF | HCMV UL50-UL53 nuclear egress complex (human cytomegalovirus) | normalized percent inhibition | inhibition, % (no concentration beside the values) | 0.15% of 190,000 active | AID 1918969, 2023;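 active means both replicates at 50% or more, plus weaker picks with an unusually low signal ratio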;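 further: stock transfer was 100 nL into about 20 µL; 0% = negative control wells and 100% = wells with untagged competitor protein; inactives centre near -12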
GIV Gai3 FP: inhibitors of GIV peptide binding to Galpha-i3, primary screen, biochemical, fluorescence polarization, FITC-GIV GBA peptide, rat Galphai3; Guanine nucleotide-binding protein G(i) subunit alpha-3 (Rattus norvegicus), P08753; percent of control (FP), % (no concentration beside the values); 0.42% of 210,000 active; 90 min; hits give low values; scaled: aluminum fluoride 0%, vehicle 100%;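 active means replicate mean at 85% of control or lower, very high polarization wells dropped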;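 further: wells of about 15 µL received 100 nL stock; the first replicate is given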
Target sequence (P08753 whole entry, looked up): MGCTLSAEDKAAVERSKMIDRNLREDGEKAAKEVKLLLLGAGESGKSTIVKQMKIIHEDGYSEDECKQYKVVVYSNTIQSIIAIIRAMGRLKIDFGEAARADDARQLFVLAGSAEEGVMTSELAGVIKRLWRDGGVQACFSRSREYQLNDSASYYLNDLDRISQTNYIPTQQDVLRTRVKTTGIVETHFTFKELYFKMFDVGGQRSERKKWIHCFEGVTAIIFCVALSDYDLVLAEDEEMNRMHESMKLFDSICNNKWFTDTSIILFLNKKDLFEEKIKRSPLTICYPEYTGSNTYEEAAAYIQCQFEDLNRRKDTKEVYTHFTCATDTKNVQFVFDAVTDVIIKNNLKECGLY
Sa growth 42C second temp: further read-out of Sa growth 42C, marked with its call; relative growth, %; measured here: growth at 30 °C;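 optical density after 20 h as mean of two plates; 100% = untreated growth and lower means inhibition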
Numbers without * were called inactive; . = no result given; & = joins results of further samples. Rows were taken by chance. Share with any hit: about 0.79%.

Results follow in this order: HCMV UL50-53 inh	GIV Gai3 FP	Sa growth 42C second temp	Sa growth 42C
Oc1c(C(O)(C(F)(F)F)C(F)(F)F)ccc2cccnc12
→ -41	.	-0.4*	-0.3*
O=C(c1ccccc1NS(=O)(=O)c1ccc(F)cc1)N1CCN(c2ccccc2F)CC1
→ 19	.	102	95
C=CCn1c(=S)[nH]c2scc(-c3ccc(OC)cc3)c2c1=O
→ -22	107	.	.
Cn1c(-c2ccc(C#N)cc2)nc(=O)c2cc(Cl)ccc21
→ .	101	86	100
CCCOc1ccc(C(=O)N(C)c2ccccc2)cc1
→ -22	102	100	111
CCc1ccccc1NC(=O)c1nc2nc(C)cc(C(F)F)n2n1
→ -10	99	87	88
Cc1ccc(N(CC(=O)Nc2ccc(Br)cc2)S(=O)(=O)c2c(C)n[nH]c2C)cc1
→ 5	98	86	137
CCOc1ccc(-n2c(O)c(C=Nc3cc(C)on3)c3ccccc3c2=O)cc1
→ 0	.	95	96
CC(=O)Oc1ccc2c(=O)c(Oc3ccccc3)coc2c1
→ -51	103	81	105
Cc1ccc(NCc2nc3ccccc3n2CCOc2ccccc2)cc1
→ -1	107	83	103
CCN(c1cccc(C)c1)S(=O)(=O)c1cc2[nH]c(=O)c(=O)[nH]c2cc1C
→ .	93	85	99
COC(=O)c1sccc1NC(=O)N1CCCC1c1ccc(OC)cc1 (stereo not given)
→ -26	102	.	.
CC(C)Cn1c(=O)c2cc(F)ccc2n2c(SCc3ccc(F)cc3)nnc12
→ 6	108	.	.
CCCc1cc(=O)[nH]c(SCC(=O)NC(C)(C)C)n1
→ 11	.	93	108
NC(=O)c1nc(-c2ccccc2O)nc2c1[nH]c(=O)n2CC1CCCO1 (stereo not given)
→ -12	99	.	.
COC(=O)Cn1c(=N)n(C)c2ccccc21
→ .	100	84	101
NC(=Nc1ccccc1)NC(=O)c1nc(Cl)c(N)nc1N
→ -70&-77&-123	103&104	83	95
Clc1cc(Br)ccc1-c1ccc(CNCC2CCNCC2)o1
→ -12	107	.	.
CN(CC(=O)Nc1ccccc1)C(=O)c1ccccc1
→ -7	108	104	98
COCCNC(=O)c1cc(Br)c(C)c(C)c1C
→ -31	101	82	85
COC(=O)c1ccccc1NC(=O)CCC(=O)N1CCOc2ccccc21
→ -14	98	89	98
COc1ccc(CN(C(=O)c2ccco2)c2ccccc2)cc1
→ -16	108	100	112
Cc1ccc(C(C)C)c(OCC(=O)Nc2cccc(-c3nc4ncccc4o3)c2)c1
→ -68	108	86	96
CCOC(=O)c1ccc(NC(=O)CC2C(=O)N(c3ccc(F)cc3)C(=O)N2Cc2ccc(C)cc2)cc1 (stereo not given)
→ -22	99	74	101
Cc1ccc(-c2nc(SCc3cc(=O)n4c(C)csc4n3)n3[nH]c(=O)cc3n2)cc1
→ -23	99	.	.
Brc1cccc(-c2noc(CCCOc3ccccc3)n2)c1
→ -14	100	89	84
COc1ccc(NC(=O)CC(C)S(=O)(=O)c2ccc3c(c2)NC(=O)CO3)cc1OC (stereo not given)
→ .	105	84	85
O=C1CSCC(=O)N1c1ccccc1
→ -14	103	.	.
CCCCN(CC)C(=O)C1CCCN(S(=O)(=O)c2cccc3nsnc23)C1 (stereo not given)
→ -112	101	80	75
Cc1nc2sc3ccccc3n2c(=O)c1S(=O)(=O)Nc1ccccc1
→ -27	101	.	.

Results follow in this order: HCMV UL50-53 inh	GIV Gai3 FP	Sa growth 42C second temp	Sa growth 42C
Cc1nnc(SCc2ccccc2)n1N
→ -22	101	98	96
O=C1Cc2ccccc2C(=O)N1Cc1ccc2c(c1)OCO2
→ -22	.	95	107
CN(Cc1ccccc1)C(=O)c1cccc(N2C(=O)C3CC=CCC3C2=O)c1 (stereo not given)
→ 2	97	89	100
C=CCn1c2c(c(=O)[nH]c1=O)C(c1ccccc1)C1=C(COC1=O)N2 (stereo not given)
→ -3	119	72	81
Cc1cc(=O)n2c3c(cc(S(=O)(=O)NC4CC4)cc13)CCC2
→ .	99	78	86
O=C(O)c1ccc(N2CCN(c3ncccn3)CC2)c(NC(=O)c2ccc(Br)cc2)c1
→ -7	104	.	.
CCOc1ccc(OCC)c(NS(=O)(=O)c2c(C(=O)N3CCC(C)CC3)c(C)n(C)c2C)c1
→ .	104	91	128
CC(C)n1nc(C(=O)N2CCc3ccccc32)c2ccccc2c1=O
→ -4	.	87	84
C/C(=N\N1C(=O)c2ccccc2C1=O)C1C(=O)c2ccccc2C1=O
→ -38	110	102	104
CN1CCN(C(=O)c2cc(-c3ccc(F)cc3)nc3ccccc23)CC1
→ -23	.	95	102
COc1cccc(CNC(=O)C2CCN(S(=O)(=O)c3ccc4c(ccn4C)c3)CC2)c1
→ .	102	87	93
CCc1cc(SC#N)ccc1N
→ -33	.	79	62
Cc1ccc(S(=O)(=O)n2nc(-c3ccco3)nc2NCc2ccccc2Cl)cc1
→ -27	102	87	101
Cc1noc2c1C(c1cccc(F)c1)C1=C(CC(c3ccccc3)CC1=O)N2 (stereo not given)
→ -7	105	.	.
COC(=O)C1CCN(C(=O)c2ccccc2)CC1
→ -4	.	90	111
COc1ccc(OCCCn2c(=O)oc3ccccc32)cc1
→ 1	105	34	74
Cc1nc2c(C(=O)N3CCc4ccccc4C3)cnn2c(C)c1Cc1ccc(Cl)cc1
→ .	110	93	98
O=C(/C=C/c1ccc(OC(F)F)cc1)NCc1ccccn1
→ -30	.	95	107
Cc1ccc(S(=O)(=O)c2nnn3c2nc(NCCc2ccccc2)c2sccc23)cc1
→ .	105	77	95
Cc1nc2ccc(S(=O)(=O)N(CC(=O)Nc3ccc(Cl)cc3)Cc3ccccc3)cc2s1
→ .	96	86	82
Cc1ccc(OCCn2c(COc3ccc(Cl)cc3)nc3ccccc32)cc1
→ -22	101	88	103
CC(C)(C)c1ccc(C(=O)C(C#N)=C2SCCCS2)cc1
→ -25	106	88	109
Cn1c(=NC(=O)CC2OC(=O)c3ccccc32)sc2ccccc21 (stereo not given)
→ 4	.	98	95
CC1CCCCC1NC(=O)CSc1nncn1N (stereo not given)
→ -28	100	87	87
Cn1c(Sc2cccs2)nc(C#N)c1C#N
→ -9	105	90	103
CC(C)(C)c1nn(Cc2ccccc2)c(C(=O)O)c1Br
→ -1	101	84	116
Cc1cccc(NC2=CC(c3cccc(Br)c3)N(c3cccc(C)c3)C2=O)c1 (stereo not given)
→ 5	106	101	109
Cc1ccc(C(=O)c2c(N)c(C(=O)Nc3cccc(F)c3)c3ccccn23)cc1
→ -9	98	.	.
O=C(Cn1cc(CO)c2ccccc21)Nc1ccccc1
→ 2	100	97	108
CCOC(=O)c1c(NC(=O)c2cc3ccccc3oc2=O)sc2c1CCC(C)C2 (stereo not given)
→ 12	110	.	.

Results follow in this order: HCMV UL50-53 inh	GIV Gai3 FP	Sa growth 42C second temp	Sa growth 42C
CC(C)(C)NC(=O)COc1ncnc2sccc12
→ -32	.	84	98
CC(=O)c1c(C)n(-c2cccc(C)c2)c2ccc(OC(=O)COc3ccccc3)cc12
→ -17	104	85	110
Cc1n[nH]c(C)c1S(=O)(=O)N1CCc2ccccc2C1
→ .	100	93	88
Cc1ccc(C)c(N2CCN(S(=O)(=O)c3ccc4c(c3)CCC(=O)N4)CC2)c1
→ .	102	101	121
CC(C)(C)C(=O)COC(=O)c1cccc(NC(=O)c2ccco2)c1
→ 8	.	83	103
CC(=O)N(CCC(c1ccccc1)c1ccco1)Cc1ccc(N(C)C)cc1 (stereo not given)
→ .	98	51	85
C=CCCC1(C)NNc2nc(=O)c(C)nn21 (stereo not given)
→ 7	105	101	75
Cc1ccccc1C(=O)Nc1ccc2nc(SCC(=O)N(C)c3ccccc3)sc2c1
→ -4	103	82	110
COC(=O)c1ccc(CN2C(=O)NC3(CCCC3)C2=O)cc1
→ -3	.	93	85
CCCCOc1ccc(-c2ncc(N)cn2)cc1
→ -31	105	70	94
COC(=O)c1ccc2c(c1)sc(=NC(=O)CSC(C)=O)n2C
→ .	106	93	95
COc1cccc(C(=O)N2CCCC2c2nnc(C(=O)Nc3cccc(F)c3)s2)c1 (stereo not given)
→ -31	106	.	.
COc1ccc2[nH]c3c(OC)ncnc3c2c1
→ .	100	87	82
CCN(Cc1ccccc1)C(=O)c1cc2c(s1)-c1c(C)cccc1OC2
→ -43	100	86	116
Cc1ccc(-c2nnc(SCCOc3ccccc3)o2)cc1
→ 7	100	86	98
CC(C)n1nccc1NC(=O)c1cccnc1Sc1ccccc1
→ -3	.	103	99
N#CCCN(C(=O)c1ccc2c(=O)n3c(nc2c1)CCCCC3)c1ccccc1
→ 0	103	94	102
Cc1cc(C(F)(F)F)c2c(N)c(C(=O)Nc3c(Cl)cccc3Cl)sc2n1
→ .	102	87	102
COc1cccc(-c2[nH]nc3nc(-c4ccc(F)cc4)cc(C(=O)NCc4ccccc4OC)c23)c1
→ -23	100	.	.
CC1CCN(S(=O)(=O)N2CCCC(C(=O)NCCCN3CCN(c4ccc(F)cc4)CC3)C2)CC1 (stereo not given)
→ -6	104	91	106
O=C(Nc1ccc2nc(SCC(=O)N3CCCC3)sc2c1)c1cccc(Cl)c1
→ -11	103	78	114
Cc1nnc2c(Nc3cccc(O)c3)nc3ccccc3n12
→ -12	110	88	116
CCCCN(C)c1nnc(NC(=O)Nc2ccc(Br)c(C)c2)s1
→ -17	106	109	131
CC(C)(C)C(=O)OCc1nc(-c2cc(-c3ccccc3)no2)cs1
→ -2	103	92	107
Cc1nnc(NC(=O)CSc2nc3c([nH]c4ccccc43)c(=O)n2-c2ccc(Cl)cc2)s1
→ .	101	84	91
Oc1ccc(F)cc1-c1ccnc2cc(-c3ccccc3)nn12
→ 11	104	.	.
COC(=O)c1cccc(N2C(=O)c3ccc(C(=O)O)cc3C2=O)c1
→ -50	100	104	106
CN(/N=C/c1ncc(C(F)(F)F)cc1Cl)C(=O)Nc1ccc(Cl)cc1
→ -20	105	79	87
COc1ccc(NC(=O)c2ccc3c(c2)CCN3C(C)=O)cc1OC
→ 7	106	.	.
C=CCn1c(SCCN2CCCCC2)nnc1C1CCCCC1
→ 8	.	89	80

Results follow in this order: HCMV UL50-53 inh	GIV Gai3 FP	Sa growth 42C second temp	Sa growth 42C
COc1ccccc1CNC(=O)CCCN1C(=O)CSc2ncccc21
→ -22	101	.	.
Cc1ccccc1NS(=O)(=O)c1nnc(NC(=O)c2ccccc2C)s1
→ -13	106	64	103
CCOC(=O)C(C#N)=C1CCN(Cc2ccccc2)CC1
→ .	123	91	98
CCC(=O)c1ccc(OCC(O)CN2CCN(S(=O)(=O)N3CCCCC3)CC2)cc1 (stereo not given)
→ -6	105	103	97
Cn1ncc2c(c(SCc3ccc(Cl)cc3Cl)nn2C)c1=O
→ -13	105	83	92
S=C(Nc1ccccc1)Nc1ccccc1-n1cccc1
→ -27	102	80	98
CCCOC(=O)COc1ccc2c(=O)c(-c3ccccc3)coc2c1
→ 1	106	106	111
CCOC(=O)Cc1csc(N(C)C)n1
→ -28	.	92	101
CCn1c(=S)sc2c(=O)n3[nH]c(=O)c4ccccc4c3nc21
→ 4&12	107&106	87	75
COc1ccccc1NS(=O)(=O)c1ccc(C)c(C(=O)N2CCCC2)c1
→ -37	.	97	97
COc1cc(-c2noc(-c3cc(C)[nH]n3)n2)cc(OC)c1OC
→ .	103	88	91
